Bm FixLJ act: activators of Burkholderia fixLJ two-component system, primary screen, B. multivorans, GFP reporter; AID 1918990, 2023; z-score (no concentration beside the values); B. multivorans fixK-promoter GFP reporter, 18 h; active compounds read high; actives 0.3% (n = 29,000);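 active means replicate mean overnight rise in green fluorescent reporter signal, 3 or more SD over negative controls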;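 further: score is relative to vehicle wells of the plate; 300 nL library stock went into each well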
Active calls of the source: *.

The opening 6 entries (preview)
SMILES,Bm FixLJ act
Cc1ncn(CCNC(=O)N2CCN(c3ncnc4ccccc34)CC2)c1C,1.8
Cc1cc(C)n(CC(=O)NC2COCC2Cc2ccncc2)n1 (stereo not given),1.2
COc1ccc(N(Cc2ccccc2)C(=O)c2nc(S(C)(=O)=O)ncc2Cl)cc1,-0.65
CCOCCCNC(=O)C1CCCN(Cc2nc(-c3ccc(CC)cc3)oc2C)C1 (stereo not given),-1.1
COC(=O)c1cc2oc(C)cc2n1CC(=O)Nc1ccc(OC)c(OC)c1,-0.36
CCC(NC(=O)c1ccc2[nH]c(=O)c(=O)[nH]c2c1)c1nc(C)c(C)s1 (stereo not given),0.27

Results, from the start:
SMILES,Bm FixLJ act
Cc1ncn(CCNC(=O)N2CCN(c3ncnc4ccccc34)CC2)c1C,1.8
Cc1cc(C)n(CC(=O)NC2COCC2Cc2ccncc2)n1 (stereo not given),1.2
COc1ccc(N(Cc2ccccc2)C(=O)c2nc(S(C)(=O)=O)ncc2Cl)cc1,-0.65
CCOCCCNC(=O)C1CCCN(Cc2nc(-c3ccc(CC)cc3)oc2C)C1 (stereo not given),-1.1
COC(=O)c1cc2oc(C)cc2n1CC(=O)Nc1ccc(OC)c(OC)c1,-0.36
CCC(NC(=O)c1ccc2[nH]c(=O)c(=O)[nH]c2c1)c1nc(C)c(C)s1 (stereo not given),0.27
O=C(CCCCCn1c(=O)c2sccc2n(CC(=O)Nc2ccccc2F)c1=O)NCc1ccc2c(c1)OCO2,-0.57
CCc1ccc(-n2c(=O)c3c4c(sc3n(CC(=O)NC(C)CC)c2=O)CCCC4)cc1 (stereo not given),-0.89
CCOc1ccc(-c2ccnc(NCC3CCN(C)C3)n2)cc1C(=O)O (stereo not given),-0.22
Cc1cccc(N2CCN(C(=O)C3CCCN(S(=O)(=O)c4ccc5c(c4)oc(=O)n5C)C3)CC2)c1C (stereo not given),-0.52
CCOc1ccc(CCNC(=O)c2cc3c(=O)[nH]c4ccc(C)cc4c3s2)cc1OCC,-0.81
Cc1cc2c(cc1C(=O)Nc1ccc(NC(=O)CN3CCCCC3)cc1)OCCO2,-0.3
O=C(CN1C(=O)CC(c2ccccc2)Sc2ccccc21)Nc1cccc(Cl)c1 (stereo not given),-0.14
Cc1c(Cl)cccc1NC(=O)c1ncn(-c2ccccc2)n1,-1.4
Cc1cccc(C(=O)N2CCCC(c3nccn3CCN(C)C)C2)n1 (stereo not given),0.21
CNC(=O)Cn1cc(NC(=O)c2cnc(C(C)C)nc2)cn1,2
CCc1ccccc1NC(=O)CSc1nccn1C,-2.2
Cc1cccc2c1-c1sc(C(=O)Nc3ccc(F)cc3F)cc1CO2,0.51
O=C(C1CCC1)N1CCCn2nc(CNc3cc(C4CC4)ncn3)cc2C1,0.18
Nc1c(C(=O)Nc2ccccc2Cl)nnn1Cc1cccc(Cl)c1,0.41

Two entries picked at random from the list so far, as already listed:
SMILES,Bm FixLJ act
CCOc1ccc(-c2ccnc(NCC3CCN(C)C3)n2)cc1C(=O)O (stereo not given),-0.22
Cc1ncn(CCNC(=O)N2CCN(c3ncnc4ccccc34)CC2)c1C,1.8

Next compounds follow.
SMILES,Bm FixLJ act
CCC(=O)N1CCc2cc(Br)cc(S(=O)(=O)N3CCCC(C(=O)Nc4ccc(OC)cc4OC)C3)c21 (stereo not given),-0.5
CCOc1ccc(C(=O)Nc2ccc(-c3cc4ccccc4oc3=O)cc2)cc1Br,-0.46
CN(C)CCN(Cc1ccccc1)c1ccccn1,-0.83
CCOc1ccc2nc(NC(=O)c3nc(SC)ncc3Cl)sc2c1,0.21
COc1ccc(-c2cc(C(=O)Nc3cc(C)ccc3O)no2)cc1OC,-1.3
Cc1cc(C(=O)O)c2c(=O)n(C)c(=O)n(C)c2n1,-0.67
Cc1ccc(NC(=O)Cn2c(-c3ccc4c(c3)OCO4)cn(-c3ccccc3)c2=O)cc1,-0.37
CC(=O)O[C@H]1C[C@H](O[C@H]2[C@@H](O)C[C@H](O[C@H]3[C@@H](O)C[C@H](O[C@H]4CC[C@@]5(C)C(CCC6C5C[C@@H](O)[C@]5(C)[C@@H](C7=CC(=O)OC7)CC[C@]65O)C4)O[C@@H]3C)O[C@@H]2C)O[C@H](C)[C@H]1O[C@@H]1O[C@H](CO)[C@@H](O)[C@H](O)[C@H]1O (stereo not given in full),-0.11
Cc1ccc(-c2cn[nH]c2C2CCCN(C(=O)c3c[nH]c(C)cc3=O)C2)cc1 (stereo not given),-1.1
CNC(=O)COc1ccc(Nc2nnc(-c3ccc(C)c(S(=O)(=O)NC(C)(C)C)c3)c3ccccc23)cc1,0.14
CC(=O)c1cccc(N(C(=O)Cn2nnc3ccccc32)C(C(=O)NCc2ccccc2)c2ccc(F)cc2)c1 (stereo not given),0.48
Cc1cccc(N2CCC(NC(=O)c3ccc(OCC(=O)N4CCCCC4)cc3)CC2)c1,0.14
O=C(c1ccc2c(c1)N(Cc1ccc(F)cc1)C(=O)c1ccccc1S2(=O)=O)N1CCCC1,-0.46
COc1ccc(CCCc2nnc(SCC(=O)Nc3cc(F)ccc3C)o2)cc1,-1
CCCc1ccc(OCCNC(=O)c2c3c(nn2C)CCCC3)cc1,-4.2
Cc1nc(C)c(CC(=O)N2CCNC(=O)C2Cc2ccccc2)s1 (stereo not given),-0.7
CCOC(=O)c1cc2c(=O)n3ccccc3nc2n(CCCOC)c1=NC(=O)c1c(-c2ccccc2Cl)noc1C,-1.1
Cc1oc(-c2cccc(Cl)c2)nc1CN1CCCC(C(=O)NCc2ccc(F)cc2)C1 (stereo not given),-0.12
CSc1ccccc1NC(=O)CCS(=O)(=O)c1nc(-c2cccs2)cc(C(F)(F)F)n1,-0.95
COc1cccc(CN2CCCn3nc(CCC(=O)NC4CC4)cc3C2)c1,-0.34
CC1(C)O[C@@H]2CC3C4C[C@H](F)C5=CC(=O)C=CC5(C)C4C(O)CC3(C)[C@]2(C(=O)CO)O1 (stereo not given in full),-0.1
O=C1COC(C(=O)NC2(CO)CCCCC2)C(c2ccccc2Cl)N1 (stereo not given),-2.4
O=C(c1cc(-c2cccc(Cl)c2)on1)N1CCN(c2ccccc2)CC1,-0.95
Cc1cc(C(F)F)n2nc(C(=O)Nc3cc(Cl)ccc3C)nc2n1,-1.5
Cc1ccc(-c2cc(-c3coc4ccccc4c3=O)c3c(n2)-c2ccccc2OC3)cc1,-0.13
COc1ccc(C2CC(=O)c3cc(-c4nc(-c5cccc([N+](=O)[O-])c5)cs4)c(=O)n(-c4cccc(C)c4)c3C2)cc1 (stereo not given),0.44
CCC(=O)N1CCc2cc(Br)cc(S(=O)(=O)N3CCCC(C(=O)NCc4ccccc4)C3)c21 (stereo not given),-1.1
CNC(=O)c1noc(CN2CCCC3(CCC(=O)N(CC4CC4)C3)C2)n1 (stereo not given),-0.95
N#Cc1c(C(F)(F)F)cc(-c2cccs2)nc1SCC(=O)Nc1cccc(C(F)(F)F)c1,-31
COc1ccc(OC2CCN(S(=O)(=O)c3cccc(F)c3)CC2)cc1,-0.65
CCn1c(C2CCN(C(=O)c3cc4cccnc4nc3C)CC2)n[nH]c1=O,-1.8
Cc1ccc(N2CCN(Cc3nnc(-c4ccccc4F)o3)CC2)c(C)c1,-0.57
Cc1cccc(N(C)c2nc3ccc(C)cc3n3cnnc23)c1,0.08
CCc1nn(CCCC(=O)NCc2ccc(OC(C)C)cc2)c(=O)c2cc3occc3n12,-1.6
COC(=O)c1ccc(NC(=O)Cn2c(=O)oc3ccccc32)cc1,-0.42
Cn1cc(C(NC(=O)c2cc(=O)[nH]c3ccccc23)C2CC(O)C2)cn1 (stereo not given),-0.97
CCc1[nH]ncc1-c1nc(CC(N)=O)nn1C1CCCCC1,0.54
Cc1cc(C)n(CCCNC2CCN(S(C)(=O)=O)CC2)n1,-3.7
COc1ccc(-n2c(=O)c3c4c(sc3n(Cc3ccc(C)cc3C)c2=O)CCC4)c(OC)c1,-1.2
O=C(CCC(=O)N1CC(O)C(Cc2ccnc3ccccc23)C1)NC1CCCCCC1 (stereo not given),-0.24
Cc1cc(C)cc(CN2CCn3nc(CNS(C)(=O)=O)cc3C2)c1,-1.2
COc1ccccc1CNS(=O)(=O)c1cc(Br)cc2c1N(C(=O)C1CC1)CC2,-1
CCOc1ccc(NC(=O)Cn2ncc3c2-c2cc(C)ccc2OC3)cc1,-1.2
O=C(CN1C(=O)COc2ccc(Cl)cc21)Nc1ccc(F)cc1,-0.01
CCCC(CCC)C(=O)NC1COCC1Cc1ccncc1 (stereo not given),0.63
COc1ccc(-c2noc(CNC(=O)COc3cccc(C)c3C)n2)cc1,-1.9
CCCC(C)N1CC2(CCN(C(=O)C3CCOCC3)CC2)OC1=O (stereo not given),-1.3
COc1cc(Cl)c(C)cc1NC(=O)CNC(=O)Cn1ccc2ccccc2c1=O,-0.39
CC(=O)NCCNc1nc2c(S(=O)(=O)c3ccc(C)c(C)c3)nnn2c2ccc(Cl)cc12,-0.18
O=C(Cn1ncc2c3ccccc3n(Cc3ccc(Cl)cc3)c2c1=O)NC1CCCCCC1,11*
CCSc1ccc(C(=O)N2CCC3(CC2)C(=O)N(C)C(=O)N3C)s1,-0.77
Oc1ccc(-c2nc3ccc(Cl)cn3c2Nc2ccc(Cl)cc2)cc1,-0.3
CCOc1ccc(CCNC(=O)CCCc2nnc3n(C)c(=O)c4sccc4n23)cc1OCC,-0.06
O=C(Nc1sc2c(c1C(=O)NCC1CCCO1)CCCC2)c1cc(=O)c2ccccc2o1 (stereo not given),-2.6
Cc1ccc(N(CC(=O)N2CCN(c3cccc(Cl)c3)CC2)S(=O)(=O)c2c(C)noc2C)cc1,0.86
CCOc1ccc(OCC(=O)Nc2c(C(=O)Nc3ccc(C)cc3)oc3ccccc23)cc1,0.45
CCOc1ccc(NC(=O)N2CCN(c3ccc(Cl)c(Cl)c3)CC2)cc1,1.9
COC1CN(Cc2cnn(-c3cccc(C)c3)c2)CC1Cc1cc(C)no1 (stereo not given),-3.4
O=S(=O)(Cc1ccc(Cl)cc1F)N1CCN(c2cnccn2)CC1,1
N=c1ccn2c(n1)O[C@H]1[C@H](O)[C@@H](CO)O[C@H]12,-0.48

Next part
SMILES,Bm FixLJ act
COc1c(Cl)cc(Cl)cc1C(=O)Nc1cccc(-c2nc3ccccc3o2)c1C,-1.2
COc1ccccc1/C=C(\C#N)c1nc(-c2cc3ccccc3oc2=O)cs1,-0.72
Cc1ccc(OCc2nnc(-c3ccccc3)o2)cc1,-2.4
Cc1ccc(OCC(=O)Nc2ccc(OCc3cc(=O)n4ccsc4n3)cc2)cc1,-2.1
O=C(NCCc1ccccc1)c1ccc(CSc2nc3ccncc3n2Cc2cccc(F)c2)cc1,-4.8
CC(=O)c1c(C)oc2ccc(N(C(=O)c3ccncc3)S(=O)(=O)c3ccc(C)cc3C)cc12,1
Cc1ncsc1CCN(C)Cc1noc(C2CCCO2)n1 (stereo not given),0.15
COc1cc(Cl)c(S(=O)(=O)NCc2nonc2C)cc1Cl,-3.2
CC(C)NC(=O)C1CC(N)CN1C(=O)Cn1c(=O)oc2ccccc21 (stereo not given),-0.75
CSc1nnc(NC(=O)Cc2coc3cc(C)ccc23)s1,-1.5
CCOCN(C(=O)Cn1c(CC(C)C)nc2ccccc21)c1c(C)cccc1CC,-2.3
COCCC(=O)NC1COCC1Cc1ccnc2ccccc12 (stereo not given),-0.34
Cc1c(NC(=O)c2cc(-c3ccc(Cl)cc3)on2)c(=O)n(-c2ccccc2)n1C,-0.3
Cc1cccn2c(CC(=O)Nc3c4c(nn3C)CSC4)cnc12,0.72
CCN1C(=O)c2ccccc2S(=O)c2ccc(C(=O)N3CCN(c4ccc(F)cc4)CC3)cc21 (stereo not given),-0.73
O=S(=O)(c1ccc(Cl)cc1)c1nc(-c2cccs2)oc1N1CCCCC1,-0.39
O=C1c2c(O)cccc2Cc2cccc(O)c21,0.76
CCc1ccc2oc(-c3cc(NC(=O)c4cccnc4)cc(C)c3O)nc2c1,-0.48
CCCSc1ncc(-c2nccn2CCc2n[nH]c(=O)[nH]2)cn1,1.2
CC(C)c1nc(CN2CCN(C(=O)c3ccc[nH]3)CC2)co1,0.39
CCOC(=O)Cn1c(=O)oc2cc(S(=O)(=O)N3CCN(c4cc(C)ccc4C)CC3)ccc21,0.76
Cc1ccc2nc(-c3ccc(O)cc3)c(Nc3ccc4c(c3)OCO4)n2c1,0.53
CC1=C(C(N)=O)C(c2ccccc2F)n2nc(-c3ccc(Cl)cc3)nc2N1 (stereo not given),0.6
Cc1ccc(S(=O)(=O)c2cnc(SCC(=O)Nc3ccc4c(c3)OCCO4)[nH]c2=O)cc1C,-1.2
COc1ccc2c(c1)CCc1c(C(=O)Nc3ccc(C#N)cc3)noc1-2,0.21
COc1cccc(CNc2nc3c(-c4cccc(C)c4)nnn3c3ccccc23)c1,-0.94
COc1ccc(-c2nc(CS(=O)CC(=O)NCc3ccc(F)cc3)c(C)o2)cc1OC (stereo not given),-1.7
CCOC(=O)C1CCN(C(=O)c2ccc3c(c2)N=C(CC)c2cc(C)ccc2S3)CC1,0.81
CCn1ncnc1C(NC(=O)c1ccc(N2CC(=O)NC2=O)cc1)C1CC1 (stereo not given),-1.4
COc1ccccc1N1CCN(c2nc3c(S(=O)(=O)c4ccccc4)nnn3c3ccc(Cl)cc23)CC1,-0.66
CCCc1ccc(OCC(=O)Nc2ccc(Cl)cc2C(=O)c2ccccc2)cc1,0.07
Cc1ccc2c(c1)-c1c(cnn1CC(=O)N1CCN(c3cc(C)ccc3C)CC1)CO2,-0.8
Cc1cccc(CCNC(=O)c2cc3c(=O)[nH]c4ccc(C)cc4c3s2)c1,-0.17
Cc1nc2nc(CNC(=O)c3cccc(F)c3)nn2c(C)c1CCC(=O)Nc1cccc(Cl)c1,1.4

Screens: PubChem BioAssay, ICCB-Longwood Screening Facility, Harvard Medical School

An excerpt, so the mix of outcomes need not match the whole.
